HNF4A DNA FP – change in binding of human HNF4 alpha to DNA | P41235 | HNF4a-FITC DNA binding, fluorescence polarization, 1 h | activity change, % at 10 µM | actives 0.3% (n = 360,000) | AID 1224865; in the data active = activity change above about 30%, passing the limit was not always enough;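 also: controls were the assay level and a saturating level of protein; the project sought stronger binding though the title names inhibitors; some compounds called inactive have numbers as strong as hits; positive values seem to mean higher polarization but the record does not say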
Target sequence (P41235 whole entry, looked up): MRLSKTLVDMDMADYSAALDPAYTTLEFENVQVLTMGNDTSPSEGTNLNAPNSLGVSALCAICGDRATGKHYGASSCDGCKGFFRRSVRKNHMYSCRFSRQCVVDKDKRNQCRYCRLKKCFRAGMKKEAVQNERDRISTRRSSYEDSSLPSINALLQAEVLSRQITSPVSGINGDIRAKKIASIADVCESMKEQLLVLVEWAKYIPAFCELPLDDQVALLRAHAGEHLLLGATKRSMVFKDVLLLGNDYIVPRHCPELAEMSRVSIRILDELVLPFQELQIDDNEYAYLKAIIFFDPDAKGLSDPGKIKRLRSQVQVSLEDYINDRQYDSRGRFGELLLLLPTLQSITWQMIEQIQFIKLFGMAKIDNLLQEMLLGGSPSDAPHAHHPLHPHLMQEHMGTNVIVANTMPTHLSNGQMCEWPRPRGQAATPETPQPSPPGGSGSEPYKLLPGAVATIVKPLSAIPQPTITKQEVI
ALR H2O2 inh – human ALR oxidase inhibition via reduced H2O2 | purified ALR, DTT oxidation, H2O2 HRP-luminol luminescence | inhibition, % (test concentration not listed) | actives 3.8% (n = 290,000) | AID 485317;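 active = mean and each replicate at 75% or more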;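 also: stock transfer was 7.5 nL into about 7.5 µL; 0% = neutral wells and 100% = wells with inactivated enzyme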
rRNA inh HTS – selective bacterial rRNA inhibition in E. coli. actives 1.6% (n = 350,000). GFP signal change (wild-type ribosome), % (concentration not given with the values). E. coli WT GFP vs humanized-ribosome RFP mutants, fluorescence, 24 h; stronger effect = lower value; DMSO median 0, no signal -100;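 active = significant combined selectivity score with lowered wild-type GFP, culture density cut under 30%, mutant RFP and density less affected; inactive = any of these conditions unmet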; also: one replicate is shown; some compounds called inactive have numbers as strong as hits
Beta2AR agonist – activates human beta-2 adrenergic receptor causing internalization. AID 504454. actives 0.43% (n = 340,000). response, % (no concentration beside the values). Am2.2-beta2AR cells, FAP receptor internalization, flow cytometry; reference of the scale not given here;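 active = response above a set limit, near 3 SD of response in nonfluorescent compounds, cut at about 42% in these data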;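 also: stock transfer was 100 nL into about 11 µL; a reference agonist was the positive control; negative values mostly stem from fluorescent compounds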
Target sequence (P07550 whole entry, looked up): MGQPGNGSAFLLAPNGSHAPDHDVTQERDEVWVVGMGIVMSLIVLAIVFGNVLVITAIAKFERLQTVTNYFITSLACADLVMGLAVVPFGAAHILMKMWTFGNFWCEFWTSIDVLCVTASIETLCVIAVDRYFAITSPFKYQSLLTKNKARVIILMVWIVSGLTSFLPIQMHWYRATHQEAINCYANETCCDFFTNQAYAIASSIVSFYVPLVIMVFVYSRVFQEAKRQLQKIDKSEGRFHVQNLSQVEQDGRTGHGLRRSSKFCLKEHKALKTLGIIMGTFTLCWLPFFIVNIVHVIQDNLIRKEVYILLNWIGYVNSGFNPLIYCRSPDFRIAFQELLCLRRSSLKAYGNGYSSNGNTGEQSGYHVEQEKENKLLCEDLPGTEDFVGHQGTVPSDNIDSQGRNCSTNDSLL
FGF22 binding – FGF22 (human) thermal shift binding. recombinant FGF22 thermal shift, SYPRO orange fluorescence; percent of sucrose octasulfate shift, DMSO zero. calls only at 9.99 µM. actives 1.5% (n = 340,000);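 active = melting point raised past a set limit in the mean and every replicate; three in four hits are not shown here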
Target sequence (Q9HCT0 whole entry, looked up): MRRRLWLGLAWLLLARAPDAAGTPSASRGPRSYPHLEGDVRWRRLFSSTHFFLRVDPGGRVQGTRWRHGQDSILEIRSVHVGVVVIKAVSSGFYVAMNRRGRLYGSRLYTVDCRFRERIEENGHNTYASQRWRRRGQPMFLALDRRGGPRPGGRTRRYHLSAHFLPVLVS
E coli growth – blocks Escherichia coli growth. OD600 absorbance (concentration not given with the values). OD600, 23 h; stronger effect = lower value. actives 0.21% (n = 330,000);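 active = OD600 absorbance below the run mean of sample wells minus 3.6 SD, in any replicate, cut at about 0.56 in these data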;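 also: stock transfer was 300 nL into about 60 µL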
UCH37 DUB inh – human UCH37 deubiquitinating enzyme inhibition; purified proteasome/UCH37, Ub-AMC cleavage fluorescence; actives 0.33% (n = 330,000); inhibition, % (no concentration beside the values);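 active = mean of two replicates above 20%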;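 also: 0% = compound-free wells with enzyme and 100% = wells lacking proteasome; stock transfer was 100 nL into about 20 µL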
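Schedule: 30 min plus 25 min, room temperature / Material: human UCH37 within purified proteasomes / Technique: AMC fluorescence intensity at 355/460 nm / Buffer or medium: pH 7.4 Tris-HCl (50 mM) with ovalbumin, ATP-MgCl2, DTT / Controls: wells without proteasome as full block, compound-free enzyme plus substrate as uninhibited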
rRNA inh HTS OD600 – second read-out of rRNA inh HTS, no call of its own (marks repeat the call); OD600 change, %; measured here: OD600 growth;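 optical density of the mix in the first replicate; 0 = DMSO median and -100 = no signal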
rRNA inh HTS RFP – recorded beside rRNA inh HTS, whose call it bears; RFP signal change, %; measured here: RFP humanized mutant strains;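 first replicate; 0 = DMSO median and -100 = no signal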
Active calls of the source: *. These rows are one share of the data; rates above refer to the full screens.

Results for Cc1ccc(-n2ccnc2SCC(=O)N(CC(C)C)C2CCS(=O)(=O)C2)c(C)c1 (stereo unspecified) ?
HNF4A DNA FP: 3.7; ALR H2O2 inh: -1; Beta2AR agonist: 2; E coli growth: 0.7; UCH37 DUB inh: -0.8

How did CC(=O)Nc1ccc2nc(NC(=O)CS(=O)(=O)c3ccccc3)sc2c1 do in these assays?
HNF4A DNA FP: 0.4; ALR H2O2 inh: -19; rRNA inh HTS: -5; Beta2AR agonist: -1; FGF22 binding: inactive; E coli growth: 0.65; UCH37 DUB inh: -1.4; rRNA inh HTS OD600: 1; rRNA inh HTS RFP: -0.2

How did Cc1cc(C)c2c(c1)c1nnc(SCCN3CCOCC3)nc1n2C do in these assays?
HNF4A DNA FP: 4.0; rRNA inh HTS: -9; Beta2AR agonist: -7; FGF22 binding: inactive; E coli growth: 0.68; UCH37 DUB inh: 7.0; rRNA inh HTS OD600: -3; rRNA inh HTS RFP: -3.1

Results for COc1ccc(NC(=O)c2cc(Br)ccc2Cl)c([N+](=O)[O-])c1 ?
HNF4A DNA FP: -2.8; ALR H2O2 inh: -16; rRNA inh HTS: 16; Beta2AR agonist: -11; FGF22 binding: inactive; E coli growth: 0.74; UCH37 DUB inh: 4.3; rRNA inh HTS OD600: 15; rRNA inh HTS RFP: -0.2

What do the screens show for `CCC(C(=O)O/N=C(\N)c1ccc(C)cc1)c1ccccc1` (stereo unspecified)?
HNF4A DNA FP: 7.2; ALR H2O2 inh: -19; Beta2AR agonist: 11; E coli growth: 0.76; UCH37 DUB inh: 7.2

What do the screens show for `Cc1nc(Cl)sc1C(=O)Nc1ccccc1`?
HNF4A DNA FP: 0.6; ALR H2O2 inh: -4; Beta2AR agonist: -1; E coli growth: 0.65; UCH37 DUB inh: 1.7

How did Cc1ccc2[nH]c3c(=O)n(CC(=O)NCCCN(C)Cc4ccccc4)ncc3c2c1 do in these assays?
HNF4A DNA FP: 3.5; ALR H2O2 inh: -1; rRNA inh HTS: 1; Beta2AR agonist: 6; FGF22 binding: inactive; E coli growth: 0.72; UCH37 DUB inh: -14; rRNA inh HTS OD600: 15; rRNA inh HTS RFP: -3.4

Results for CNC(=S)N/N=C(\C)c1ccccc1 ?
HNF4A DNA FP: 5.0; ALR H2O2 inh: 46; rRNA inh HTS: -5; Beta2AR agonist: -5; FGF22 binding: inactive; rRNA inh HTS OD600: -17; rRNA inh HTS RFP: -1.1

How did O=C(c1ccc(S(=O)(=O)NCc2ccco2)cc1)N1CCN(Cc2ccccc2F)CC1 do in these assays?
HNF4A DNA FP: 2.2; rRNA inh HTS: -5; Beta2AR agonist: 8; E coli growth: 0.7; UCH37 DUB inh: 1.0; rRNA inh HTS OD600: -10; rRNA inh HTS RFP: -1.0

What do the screens show for `CC(C)(C)NC(=O)NC(=O)COC(=O)c1ccco1`?
HNF4A DNA FP: 3.2; ALR H2O2 inh: 4; Beta2AR agonist: 8; E coli growth: 0.74; UCH37 DUB inh: 0.5

Results for COC(=O)C1=CN(CCOC23CC4CC(CC(C4)C2)C3)C=C(C(=O)OC)C1c1ccsc1 ?
HNF4A DNA FP: -1.1; rRNA inh HTS: 13; Beta2AR agonist: 0; FGF22 binding: inactive; E coli growth: 0.74; UCH37 DUB inh: -258; rRNA inh HTS OD600: 15; rRNA inh HTS RFP: 4.5

Results for O=C(NCc1cccnc1)/C(=C\c1ccc(-c2cccc(Cl)c2)o1)S(=O)(=O)c1ccccc1 ?
HNF4A DNA FP: 1.0; ALR H2O2 inh: -3; Beta2AR agonist: 26; E coli growth: 0.69; UCH37 DUB inh: -0.4

How did COc1ccc(NC(=O)N2C[C@H]3CON(C)[C@H]3C[C@H]2c2ccc(N3CCCCC3)cc2)cc1 do in these assays?
HNF4A DNA FP: 1.9; rRNA inh HTS: 7; FGF22 binding: inactive; rRNA inh HTS OD600: 9; rRNA inh HTS RFP: -1.0

What do the screens show for `Cc1nc(NC(=O)c2cc3ccccc3o2)sc1C`?
HNF4A DNA FP: 2.3; ALR H2O2 inh: 43; rRNA inh HTS: -17; Beta2AR agonist: 25; FGF22 binding: inactive; E coli growth: 0.68; UCH37 DUB inh: -12; rRNA inh HTS OD600: -19; rRNA inh HTS RFP: -2.4

How did CC(NC(=O)CCNC(=O)c1ccc(Br)cc1)c1ccc(S(N)(=O)=O)cc1 (stereo unspecified) do in these assays?
HNF4A DNA FP: -4.0; ALR H2O2 inh: -3; rRNA inh HTS: 2; Beta2AR agonist: 2; FGF22 binding: inactive; E coli growth: 0.6; UCH37 DUB inh: 0.5; rRNA inh HTS OD600: 3; rRNA inh HTS RFP: -0.5

Results for NC(=O)[C@H]1CC2(CC(c3cccc(NC(=O)CC(c4ccccc4)c4ccccc4)c3)=NO2)CN1C(=O)c1ccccc1C(=O)c1ccccc1 (stereo partly specified) ?
HNF4A DNA FP: -3.3; ALR H2O2 inh: 2; rRNA inh HTS: 1; Beta2AR agonist: 1; FGF22 binding: inactive; UCH37 DUB inh: 3.2; rRNA inh HTS OD600: 14; rRNA inh HTS RFP: -1.6

Results for COc1ccccc1Nc1nc(N)nc(CSC(=S)N2CCC(C)CC2)n1 ?
HNF4A DNA FP: 3.4; ALR H2O2 inh: 6; Beta2AR agonist: -16; FGF22 binding: inactive; E coli growth: 0.69; UCH37 DUB inh: 2.6

Results for CCCCn1c(O)c(N=NC(=O)c2ccccc2NS(=O)(=O)c2cccs2)c2ccccc21 ?
HNF4A DNA FP: 0.5; ALR H2O2 inh: -4; Beta2AR agonist: -10; E coli growth: 0.73; UCH37 DUB inh: 6.4

How did Cc1ccc(S(=O)(=O)NCCCCCC(N)=O)cc1 do in these assays?
HNF4A DNA FP: 2.5; ALR H2O2 inh: -10; Beta2AR agonist: 9; E coli growth: 0.75; UCH37 DUB inh: 3.0

Results for CCn1c(SCc2cccc(C(=O)O)c2)nnc1-c1ccccc1 ?
HNF4A DNA FP: -2.0; ALR H2O2 inh: -1; Beta2AR agonist: 16; E coli growth: 0.72; UCH37 DUB inh: -1.6

What do the screens show for `CC1CCCC(NC(=O)c2ccc3c(SCC(=O)O)c4c(nc3c2)CCC4)C1C` (stereo unspecified)?
HNF4A DNA FP: 1.2; ALR H2O2 inh: 0; rRNA inh HTS: 2; Beta2AR agonist: -2; FGF22 binding: inactive; E coli growth: 0.65; UCH37 DUB inh: 3.8; rRNA inh HTS OD600: -7; rRNA inh HTS RFP: -0.7

What do the screens show for `CCN1CCN(C(=O)c2ccccc2NS(=O)(=O)c2ccc(Cl)cc2)CC1`?
HNF4A DNA FP: 0.0; ALR H2O2 inh: 3; rRNA inh HTS: 13; Beta2AR agonist: -2; FGF22 binding: inactive; E coli growth: 0.64; UCH37 DUB inh: 0.0; rRNA inh HTS OD600: 16; rRNA inh HTS RFP: -6.6

What do the screens show for `COc1ccc(C(=O)Nc2ccccc2C(=O)N2CCOCC2)cc1Br`?
HNF4A DNA FP: -1.0; ALR H2O2 inh: -1; rRNA inh HTS: 0; Beta2AR agonist: -5; FGF22 binding: inactive; rRNA inh HTS OD600: 5; rRNA inh HTS RFP: 0.9

Results for CCN(Cc1ccccc1)S(=O)(=O)c1ccc(C(=O)N(CCCN(C)C)c2nc3cc(OC)ccc3s2)cc1 ?
HNF4A DNA FP: 2.8; ALR H2O2 inh: -11; rRNA inh HTS: -56; Beta2AR agonist: 36; FGF22 binding: inactive; E coli growth: 0.69; UCH37 DUB inh: 6.2; rRNA inh HTS OD600: -82; rRNA inh HTS RFP: -14

Three compounds picked at random from the list so far, as already listed:
Results for COc1ccccc1Nc1nc(N)nc(CSC(=S)N2CCC(C)CC2)n1 ?
HNF4A DNA FP: 3.4; ALR H2O2 inh: 6; Beta2AR agonist: -16; FGF22 binding: inactive; E coli growth: 0.69; UCH37 DUB inh: 2.6

What do the screens show for `CC1CCCC(NC(=O)c2ccc3c(SCC(=O)O)c4c(nc3c2)CCC4)C1C` (stereo unspecified)?
HNF4A DNA FP: 1.2; ALR H2O2 inh: 0; rRNA inh HTS: 2; Beta2AR agonist: -2; FGF22 binding: inactive; E coli growth: 0.65; UCH37 DUB inh: 3.8; rRNA inh HTS OD600: -7; rRNA inh HTS RFP: -0.7

Results for CCn1c(SCc2cccc(C(=O)O)c2)nnc1-c1ccccc1 ?
HNF4A DNA FP: -2.0; ALR H2O2 inh: -1; Beta2AR agonist: 16; E coli growth: 0.72; UCH37 DUB inh: -1.6

New compounds follow:
How did CCCn1c(SCc2cc(=O)[nH]c3ccccc23)nc2c1c(=O)n(C)c(=O)n2C do in these assays?
HNF4A DNA FP: 5.5; ALR H2O2 inh: 9; Beta2AR agonist: -4; E coli growth: 0.66; UCH37 DUB inh: -0.4

What do the screens show for `CC(=O)Nc1cccc(-c2ccnc3c2CC(C(=O)Nc2ccc(C(C)C)cc2)O3)c1` (stereo unspecified)?
HNF4A DNA FP: 1.2; rRNA inh HTS: -7; FGF22 binding: inactive; rRNA inh HTS OD600: -18; rRNA inh HTS RFP: -0.4

What do the screens show for `CC(=O)N(CC1CCCO1)c1nnc(-c2cnccn2)s1` (stereo unspecified)?
HNF4A DNA FP: 3.6; ALR H2O2 inh: 2; rRNA inh HTS: 2; Beta2AR agonist: -10; E coli growth: 0.7; UCH37 DUB inh: -6.4; rRNA inh HTS OD600: 5; rRNA inh HTS RFP: -6.3

How did CCn1c(SCC(=O)NNC(=O)c2ccc(C)cc2)nnc1-c1ccncc1 do in these assays?
HNF4A DNA FP: 0.4; Beta2AR agonist: -5; E coli growth: 0.73; UCH37 DUB inh: 3.3

How did O=[N+]([O-])c1ccc(N2CCOCC2)nc1 do in these assays?
HNF4A DNA FP: 1.9; ALR H2O2 inh: 2; Beta2AR agonist: 4; E coli growth: 0.68; UCH37 DUB inh: 11

Results for Cc1cccc(C)c1NC(=O)C(Cl)C(=O)c1ccccc1 (stereo unspecified) ?
HNF4A DNA FP: -6.5; ALR H2O2 inh: 4; rRNA inh HTS: 1; Beta2AR agonist: 15; FGF22 binding: inactive; rRNA inh HTS OD600: 3; rRNA inh HTS RFP: -2.0

How did Cc1cccc(C)c1-n1nnnc1SCc1nc(N)nc(N(C)C)n1 do in these assays?
HNF4A DNA FP: -4.5; rRNA inh HTS: -24; FGF22 binding: inactive; rRNA inh HTS OD600: -27; rRNA inh HTS RFP: 3.9

How did Cc1cnc(NC(=O)c2cccs2)s1 do in these assays?
HNF4A DNA FP: -2.0; ALR H2O2 inh: 4; rRNA inh HTS: 1; Beta2AR agonist: -10; FGF22 binding: inactive; E coli growth: 0.6; UCH37 DUB inh: 4.6; rRNA inh HTS OD600: 5; rRNA inh HTS RFP: 0.1

What do the screens show for `CCCCn1c(N)c(N(CC)C(=O)c2cccc(OCc3ccccc3)c2)c(=O)[nH]c1=O`?
HNF4A DNA FP: -2.7; ALR H2O2 inh: -2; rRNA inh HTS: 9; Beta2AR agonist: 1; FGF22 binding: inactive; E coli growth: 0.67; UCH37 DUB inh: 0.1; rRNA inh HTS OD600: 6; rRNA inh HTS RFP: 2.0

How did O=C(Nc1cccc2ccccc12)C1CCCC1 do in these assays?
HNF4A DNA FP: 5.8; ALR H2O2 inh: -4; rRNA inh HTS: 11; Beta2AR agonist: 14; FGF22 binding: inactive; E coli growth: 0.7; UCH37 DUB inh: 4.1; rRNA inh HTS OD600: 12; rRNA inh HTS RFP: -2.4

Results for O=C(C1CCN(c2nnnn2-c2ccccc2)CC1)N1CCN(c2ccccc2)CC1 ?
HNF4A DNA FP: -0.4; ALR H2O2 inh: 28; Beta2AR agonist: 0; E coli growth: 0.72; UCH37 DUB inh: 1.7
